CSC inhib – cancer stem cell viability inhibitors, primary screen, luminescence | cancer stem cell-like cells viability | inhibition, % at 7.5 µM | actives 1.1% (n = 300,000) | AID 2717, 2010;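 active = mean at 75% or more and at least half the replicates too; inconclusive = mean and replicates disagree; tested in HMLE shEcad cells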;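 note: 0% = median of negative and 100% = median of positive control wells; the first replicate is given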
HIV Env fusion – inhibitors of HIV-1 Env-driven cell-cell fusion, primary screen, HeLa-JRFL effector, CEM21 target cells, luciferase | AID 651610, 2012 | actives 1.1% (n = 360,000) | inhibition, % at 12.3 µM;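 active = mean replicate inhibition score of at least 50 and every replicate individually at or above 50; inconclusive = only one of the two criteria met; inactive = mean below 50 and not all replicates reaching 50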;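 note: 0% = plate neutral controls and 100% = maraviroc near 300 nM; one replicate is shown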
PABP polyA inh – PABP poly(A) RNA binding inhibitors, primary screen, biochemical, fluorescence polarization, uHTS; inhibition, % at 35 µM; Polyadenylate-binding protein 1 (Homo sapiens), P11940; actives 1% (n = 290,000);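 active = 50% or more with normal probe brightness, or confirmed in later tests; inconclusive = above 50% with abnormal brightness, or retests that disagree; inactive = below 50% or failed in later tests; about a fifth of its hits are not listed in these tables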;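 note: calls also rest on retests at 20 µM and on dose response follow-up; controls were probe without protein and protein plus probe with vehicle; some compounds called inactive have numbers as strong as hits; many hits fall short of the cut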
Target sequence (P11940 whole entry, looked up): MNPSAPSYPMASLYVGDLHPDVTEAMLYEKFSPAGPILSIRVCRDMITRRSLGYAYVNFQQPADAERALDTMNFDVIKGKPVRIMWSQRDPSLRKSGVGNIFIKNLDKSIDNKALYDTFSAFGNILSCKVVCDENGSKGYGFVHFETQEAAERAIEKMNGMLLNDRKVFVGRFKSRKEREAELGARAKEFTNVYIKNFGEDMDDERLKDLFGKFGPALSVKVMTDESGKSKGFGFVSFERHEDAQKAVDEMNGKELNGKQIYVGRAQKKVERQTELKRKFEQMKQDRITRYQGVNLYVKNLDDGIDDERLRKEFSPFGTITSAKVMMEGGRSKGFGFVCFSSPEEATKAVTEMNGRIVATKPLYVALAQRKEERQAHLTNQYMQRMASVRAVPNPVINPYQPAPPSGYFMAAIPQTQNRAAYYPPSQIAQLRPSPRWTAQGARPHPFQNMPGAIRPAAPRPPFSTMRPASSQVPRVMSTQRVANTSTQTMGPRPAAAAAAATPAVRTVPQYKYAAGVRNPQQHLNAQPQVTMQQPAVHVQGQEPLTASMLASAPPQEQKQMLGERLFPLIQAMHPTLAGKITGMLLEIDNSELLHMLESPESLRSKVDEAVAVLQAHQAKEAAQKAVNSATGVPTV
MT1-MMP act inh – blockers of MT1-MMP proenzyme processing, primary screen, HT1080 RFP-PRO-GFP cells, GFP/RFP fluorescence. Matrix metalloproteinase-14 (Homo sapiens), P50281. GFP/RFP ratio fluorescence, overnight; percent of plate control window, DMSO zero. GFP/RFP ratio change, % at 20 µM. actives 0.061% (n = 360,000);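 active = GFP/RFP ratio change of at least 30% with cell ATP level not reduced by more than half and red fluorescence within 50% of control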; note: strong numbers were not always called active
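Assay system: HT1080 RFP-PRO-GFP cells | Dosing: 20 µM single dose, 1% DMSO | Incubation: Cells overnight before dosing, compound overnight, 37 °C, 5% CO2 | Evaluation: GFP/RFP fluorescence ratio | Control set: DMSO-only wells and HT1080 RFP-L50D-GFP cell wells as references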
Rce1 inh – yeast Rce1p protease inhibitors, primary screen, biochemical, fluorescence, cell-free homogeneous; CAAX prenyl protease 2 (Saccharomyces cerevisiae (strain ATCC 204508 / S288c)), Q03530; yeast membranes, quenched prenylated peptide cleavage fluorescence; calls only; actives 0.27% (n = 290,000); AID 2563, 2010;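 active = fall in fluorescence gain of 50% or more versus controls, with final raw signal at or below 3038400; inconclusive = same 50% fall but final raw signal above 3038400; inactive = fall in fluorescence gain under 50%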;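 note: plate controls were neutral control wells for no effect and wells lacking membranes for full effect; tested at 10 µM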
UUG fidelity – modulators of yeast start codon fidelity, primary screen, whole organism, S. cerevisiae, single point, plate reader; activity score, % at 18.7 µM; actives 0.13% (n = 350,000); S. cerevisiae UUG-firefly luciferase reporter, luminescence/redox ratio; AID 602363, 2012;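 active = replicate mean at a twofold rise or more, about +100% in these data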;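 note: firefly luciferase made from a UUG start codon reports start codon fidelity; reporter light over untreated wells divided by growth signal over untreated wells; some hits fall short of that in this replicate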
eIF4H FP inh – human eIF4H binding inhibitors, primary screen, translation initiation inhibitor project, biochemical, uHTS, fluorescence polarization. Eukaryotic translation initiation factor 4H (Homo sapiens), Q15056. eIF4H fluorescence polarization binding assay. inhibition, % at 35 µM. actives 0.94% (n = 290,000);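 active = 50% or more with normal probe brightness, or confirmed in later tests; inconclusive = above 50% with abnormal brightness, or retests that disagree; inactive = below 50% or failed in later tests; about a fifth of its hits are not listed in these tables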;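 note: calls also rest on retests at 20 µM and on dose response follow-up; 0% = protein and probe with vehicle and 100% = probe without protein; strong numbers were not always called active; many hits fall short of the cut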
MT1-MMP act inh RFP – further read-out of MT1-MMP act inh, marked with its call; RFP signal change, %; measured here: RFP expression control read;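 0 = vehicle wells; hits needed this value within 50% of zero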
The depositor's hits bear a star; i = inactive; ? = inconclusive; nt = not tested or not shown; + = active, no number; & = joins results of further samples.

Results follow in this order: MT1-MMP act inh RFP, MT1-MMP act inh, CSC inhib, HIV Env fusion, eIF4H FP inh, PABP polyA inh, Rce1 inh, UUG fidelity
Cc1c(NC(=O)CSc2nnnn2-c2ccc(C(=O)O)cc2)c(=O)n(-c2ccccc2)n1C
    -6, 0, -8, 8, -5, 7, i, nt
CCOc1ccc(CN2CCN(CCCc3ccccc3)C(CCO)C2)cc1 (configuration not stated)
    6, 2, 47, 13, -10, -4, i, -9
CCOC(=O)C1=C(CSc2nc3c(cc2C#N)CN(C)CC3)OC(N)=C(C#N)C1c1ccc(F)cc1 (configuration not stated)
    11, -31, -18, nt, ?, ?, i, nt
CCOc1ccc(/C=N/NC(=O)c2nnn(-c3nonc3N)c2COc2ccc(F)cc2)cc1
    -1, 2, -6, 8, -6, 3, i, nt
COc1ccc(C(CNC(=O)c2cccc(S(=O)(=O)N3CCOCC3)c2)N2CCOCC2)cc1 (configuration not stated)
    5, 0, nt, 7, nt, nt, nt, -12
N#CC(C(=O)OC1CCCCC1)c1nc2ccccc2nc1N1CCCCC1 (configuration not stated)
    nt, nt, nt, -52, 40, 48, i, nt
CCCCc1ccc(NC(=O)NCc2ccccn2)cc1
    0, 1, 10, 2, -3, -7, i, -22
CC(C)[C@H](NC(=O)c1ccccc1F)C(=O)Nc1ccc2c(c1)OCO2
    -2, -3, -1, -1, nt, nt, nt, -22
O=C(CSc1ncnc2c1oc1ccccc12)Nc1cccc(F)c1
    -1, 2, 2, ?, -8, -1, i, nt
COc1ccc(C(=O)N/C(=C\c2ccccc2)C(=O)NC(CC(C)C)C(=O)O)cc1 (configuration not stated)
    3, -1, -9, 3, -7, -6, i, nt
CCC(=O)N1CCc2cc(Br)cc(S(=O)(=O)N3CCCCCC3)c21
    -4, 8, 9, 45, -4, 15, i, -3
C[C@H]1CN([C@@H](C)CO)C(=O)CCCn2nncc2CO[C@@H]1CN(C)S(=O)(=O)c1ccc(Oc2ccccc2)nc1
    3, -1, nt, 0, nt, nt, nt, -23&21
O=c1[nH]c(CSc2ccccn2)nc2c1cnn2-c1ccccc1
    -2, -2, -4, -3, -5, 0, i, nt
O=C(CSc1ncnc2c1oc1ccccc12)Nc1nc2ccccc2s1
    -1, -1, -13, 6, 0, 1, i, 1
CCCc1nnc(NC(=O)CCC(=O)N2CCN(C3c4ccccc4-c4ccccc43)CC2)s1
    3, 0, -10, -12, 4, 6, i, -15
O=C(NC(=S)Nc1ccccc1N1CCOCC1)c1ccc(Br)cc1
    -5, -3, 28, 7, -15, -9, i, -14
O=C(Cc1cccc([N+](=O)[O-])c1)Nc1ccc(C(=O)N2CCOCC2)cc1
    -3, 0, -9, 2, nt, nt, nt, -14
COc1cccc(C2C3=C(CCCC3=O)NC3=C2C(=O)c2ccccc23)c1 (configuration not stated)
    nt, nt, 22, nt, -3, -2, i, nt
CCOc1cc(/C=N/NC(=O)c2cc(-c3cccc(OC)c3)nc3ccccc23)ccc1O
    -18, 1, 6, 5, nt, nt, i, -13
FC(F)(F)c1cccc(-c2ccc(-c3csnn3)o2)c1
    1, -2, nt, -266, 5, 7, i, -5

An excerpt from above, limited to eIF4H FP inh.
| Molecule | eIF4H FP inh |
| --- | --- |
| O=c1[nH]c(CSc2ccccn2)nc2c1cnn2-c1ccccc1 | -5 |
| O=C(CSc1ncnc2c1oc1ccccc12)Nc1nc2ccccc2s1 | 0 |

Carrying on.
Results follow in this order: MT1-MMP act inh RFP, MT1-MMP act inh, CSC inhib, HIV Env fusion, eIF4H FP inh, PABP polyA inh, Rce1 inh, UUG fidelity
COc1ccc2c(c1)C(C)CC(C)(C)N2C(=O)CSc1ncn[nH]1 (configuration not stated)
    10, 7, 4, nt, -1, -11, nt, -23
Cc1cccc(N(C(=O)c2snc(C(N)=O)c2N)C(C(=O)NCC2CCCO2)c2c[nH]c3ccccc23)c1 (configuration not stated)
    -2, -5, -13, 11, 10, 0, i, 6
O=C1C=C(c2ccc(Oc3ccccc3)cc2)C[C@@H](c2ccc(F)cc2)C1
    1, 4, 9, 11, nt, nt, nt, -18
CCOc1ncccc1C(=O)OCC(=O)NCCCc1ccccc1
    1, 3, -4, ?, nt, nt, nt, -7
O=C(NCCCCNC(=O)c1ccc(F)cc1)c1ccc(F)cc1
    1, -2, -5, 3, 7, 3, i, -15
CN(C)CCN[C@H]1CCC2C3CC=C4C[C@@H](O)CC[C@]4(C)C3CC[C@@]21C (some centres not stated)
    -4, -4, 38, 6, nt, nt, nt, -11
O=C(NN=Cc1ccccc1O)NN=Cc1ccccc1O
    -25, 8, nt, 27, nt, nt, nt, -16
CCC(C)NC(=O)C1CCN(S(=O)(=O)CC)CC1 (configuration not stated)
    3, 3, -2, nt, -10, -6, i, -12
CC(C)[C@H](NC(=O)[C@@H]1CSC2c3ccccc3C(=O)N21)C(=O)NCc1ccco1 (some centres not stated)
    -1, 0, -9, 4, 1, 6, i, -18
COc1ccc(C(=O)NCc2csc(C)n2)cc1OC1CCN(C(C)=O)CC1
    -4, -4, -4, -1, 10, 1, i, -19
CCn1c(COc2cccc3cccnc23)nnc1SC(F)F
    -3, -3, -2, 14, -6, 1, i, nt
O=C(CCSc1ccc(Cl)cc1)NCc1ccncc1
    6, 3, 3, -1, -5, 17, i, nt
Oc1ccccc1-c1cc(-c2ccccc2Cl)[nH]n1
    4, 4, 29, nt, 4, 10, i, -50
c1coc(C2Nc3cccc4cccc(c34)N2)c1
    nt, nt, 3, nt, 110*, 102*, i, nt
O=C(NCCn1cc(SCc2ccc(F)cc2)c2ccccc21)c1c(F)cccc1F
    -19, -6, 34, ?, -2, 0, i, -17
O=C(/C=C/c1cccs1)Nc1nc(-c2ccccc2)cs1
    -22, -25, nt, -41, -5, -4, i, -4
COc1ccc2c(c1)CC1c3c(cc4c(c3-2)OCO4)CC[N+]1(C)[O-] (configuration not stated)
    19, 11, 4, -6, -3, 6, i, -19
Cc1ccc(C(=O)N/C(=C/c2cccnc2)C(=O)N2CCCCCC2)cc1
    3, -1, 0, -12, 0, 14, i, -9
Cc1ccc(/C=N/NC(=O)c2ccco2)s1
    1, 2, 9, -49, 2, -3, i, -11
CCC(=O)Nc1nc(C)c(Oc2ccccc2)c(=O)[nH]1
    2, 2, -14, nt, -2, 1, i, -2
COc1ccc(CN2CCCCC2C(=O)Nc2ccc(OC)c(OCC(C)C)c2)cc1OC (configuration not stated)
    -2, 0, -6, 13, 0, 4, +, 0&1
NS(=O)(=O)c1ccc(NC(=O)N2c3ccccc3Sc3ccccc32)cc1
    nt, nt, -2, nt, -2, 2, i, nt
CN1CC(C(=O)Nc2ccc(F)c(Cl)c2)CC1=O (configuration not stated)
    0, 0, -8, 1, -3, 1, i, -6
CS(=O)(=O)Nc1ccc(C(=O)N2CC(=O)Nc3ccccc32)cc1
    2, 1, nt, -59, -1, -6, i, -6
Cc1ccc2nc(SCC(=O)NCCc3ccccc3)nc(=O)n2c1
    -3, -4, -20, -2, nt, nt, i, -24
COc1ccc(-n2c(=S)[nH]c(=O)c3cccnc32)cc1
    0, 0, -9, 6, 3, -4, i, -1
COc1ccc(S(=O)(=O)NCc2ccncc2)cc1NC(=O)c1ccccc1
    -23, 3, -10, 7, nt, nt, i, nt
CC(C)c1nnc(SCC(=O)NC2CCCCC2)n1C
    -9, -4, -1, -43, -12, -2, i, -15
Cn1cnc([N+](=O)[O-])c1Oc1ccc2ccccc2c1
    -4, 0, 23, -38, 5, 0, i, nt
Cc1nc2c(Cl)cccc2c2c1CC(CBr)O2 (configuration not stated)
    -4, 0, -11, 5, -9, -8, i, -36
COc1cc(C(=O)OCCNC(=O)c2ccccc2)cc(OC)c1OC
    1, 6, 12, -3, 3, 4, i, -4
COC(=O)N/N=C(\C)c1cccs1
    4, 5, -10, -9, 0, 5, i, nt
Cc1csc(NC(=O)c2cc([N+](=O)[O-])cc([N+](=O)[O-])c2)n1
    -1, 1, -2, -15, 0, 12, i, nt
O=c1c(-c2ccccc2Cl)c[nH]n1-c1ccccc1
    -1, -6, nt, -17, -8, 3, i, -20
C[C@@H]1C[C@@H]2O[C@H]2/C=C\C=C\C(=O)Cc2c(Cl)c(O)cc(O)c2C(=O)O1
    -25, -17, -10, nt, 1, 14, i, -1
CCCn1c(SCC(N)=O)nc2c(c1=O)C1(CCCC1)Cc1ccccc1-2
    -4, -2, -5, nt, 2, 7, i, -11
Cc1ccc(NC2=C(Cl)C(=O)OC2NC(=O)c2ccccc2)cc1 (configuration not stated)
    -4, 1, -13, -6, -7, 4, i, nt
O=C(NCC1CCN(C(=O)c2cccc([N+](=O)[O-])c2)CC1)c1cccc([N+](=O)[O-])c1
    -1, -3, nt, 16, 3, -6, i, 0
CCN1C(=O)c2ccccc2S(=O)(=O)c2ccc(C(=O)NCCOC)cc21
    3, -1, -2, 13, 15, 13, i, -8
O=c1c2ccccc2oc2nc(-c3ccco3)n(-c3ccccc3)c(=O)c12
    3, -2, -8, -40, -11, 10, i, -12
C/C(Cc1ccccc1)=N\NC(=O)CNC(=O)c1cccc(Cl)c1
    2, -3, -13, -1, -3, 4, i, nt
Cn1ccc2c(-c3ccc(C(F)(F)F)cc3)cc3c(c21)C1CCC3O1 (configuration not stated)
    -6, 1, nt, 37, nt, nt, nt, -15
Cc1ccc2nc(SCC(=O)NCc3ccc(F)cc3)[nH]c2c1
    -2, 1, 7, 14, -1, -4, i, -20

Single records, as listed above.
Shown for CCCn1c(SCC(N)=O)nc2c(c1=O)C1(CCCC1)Cc1ccccc1-2 = MT1-MMP act inh RFP: -4; MT1-MMP act inh: -2; CSC inhib: -5; HIV Env fusion: nt; eIF4H FP inh: 2; PABP polyA inh: 7; Rce1 inh: i; UUG fidelity: -11
Shown for CC(C)c1nnc(SCC(=O)NC2CCCCC2)n1C = MT1-MMP act inh RFP: -9; MT1-MMP act inh: -4; CSC inhib: -1; HIV Env fusion: -43; eIF4H FP inh: -12; PABP polyA inh: -2; Rce1 inh: i; UUG fidelity: -15

Compound activity: PubChem BioAssay, several laboratories
